Sa growth 42C – S. aureus growth inhibition at 42 and 30 °C, primary screen, LtaS inhibitor project, RN4220, two temperatures; OD600, 20 h, 42 °C; stronger effect = lower value; relative growth, % (test concentration not listed); 170,000 tested, 0.53% active; AID 720641, 2013;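 active = growth at 42 °C up to 50% and 20 or more points under that at 30 °C, or under 10% at both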;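 note: 300 nL library stock went into each well; scaled to the means of positive and negative controls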
GIV-Gai inh – inhibitors of GIV peptide binding to Galpha-i3, primary screen, biochemical, fluorescence polarization, FITC-GIV GBA peptide, rat Galphai3; Guanine nucleotide-binding protein G(i) subunit alpha-3 (Rattus norvegicus), P08753; 90 min; stronger effect = lower value; scaled: aluminum fluoride 0%, vehicle 100%; percent of control (FP), % (concentration not given with the values); 210,000 tested, 0.42% active;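 active = replicate mean at 85% of control or lower, very high polarization wells dropped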;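 note: wells of about 15 µL received 100 nL stock; the first replicate is given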
Target sequence (P08753 whole entry, looked up): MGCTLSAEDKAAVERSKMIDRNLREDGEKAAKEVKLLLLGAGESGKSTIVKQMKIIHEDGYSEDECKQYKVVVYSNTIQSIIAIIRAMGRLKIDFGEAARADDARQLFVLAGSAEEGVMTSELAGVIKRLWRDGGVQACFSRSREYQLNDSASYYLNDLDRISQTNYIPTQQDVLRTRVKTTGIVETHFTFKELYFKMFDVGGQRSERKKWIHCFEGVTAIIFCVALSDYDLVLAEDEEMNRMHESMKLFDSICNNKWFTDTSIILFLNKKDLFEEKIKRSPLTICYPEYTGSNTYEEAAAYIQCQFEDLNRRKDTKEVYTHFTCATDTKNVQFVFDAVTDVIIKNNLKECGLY
HCMV NEC inh – inhibitors of HCMV UL50-UL53 interaction, biochemical, HTRF; HCMV UL50-UL53 nuclear egress complex (human cytomegalovirus); normalized percent inhibition; inhibition, % (concentration not given with the values); 190,000 tested, 0.15% active; AID 1918969, 2023;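 active = both replicates at 50% or more, plus weaker picks with an unusually low signal ratio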;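 note: stock transfer was 100 nL into about 20 µL; 0% = negative control wells and 100% = wells with untagged competitor protein; inactives centre near -12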
Sa growth 42C second temp – second read-out of Sa growth 42C, no call of its own (marks repeat the call); relative growth, %; measured here: growth at 30 °C;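 optical density after 20 h as mean of two plates; 100% = untreated growth and lower means inhibition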
The depositor's hits bear a star; x = not tested or not shown; & = joins results of further samples.

SMILES	Sa growth 42C	Sa growth 42C second temp	GIV-Gai inh	HCMV NEC inh
CCc1cccc2c(=O)c(C(=O)N3CCCC3)c[nH]c12	98	101	103	-8
CCOc1c(Nc2ccc(F)cc2F)c(=O)c1=O	x	x	103	-20
CC(C)(C)c1ccc(-c2nc3scc(-c4cccs4)c3c(=O)o2)cc1	x	x	101	-19
O=C(c1ccccc1)c1cnc2ccc(F)cc2c1S(=O)(=O)c1ccccc1	x	x	98	-18
O=C(Nc1ccc(Br)c(Cl)c1)C1CC1	95	78	x	3
O=C(NCCc1ccccc1)c1cccc(N2C(=O)C3CC=CCC3C2=O)c1 (stereo not given)	112	83	100	x
Cc1ccc(NC(=O)CSc2nnc(-c3ccc([N+](=O)[O-])cc3)o2)c(C)c1	103	83	96	-77
CCN(c1ccccc1C)S(=O)(=O)c1nnc(NC(=O)c2ccco2)s1	92	49	102	-20
NC(=O)COC(=O)c1ccc(S(=O)(=O)Nc2ccccc2)cc1	91	92	x	-4
Cc1ccccc1CN1CCCN(CC(=O)Nc2ccc3c(c2)OCCO3)S1(=O)=O	88	88	100	x
Cn1cccc1C=NN1CCN(Cc2ccccc2)CC1	87	64	100	-7
C[C@@]12CCC(=O)[C@]1(C)CCC2=O	89	90	99	-47
COc1ccccc1Nc1sc(C(=O)c2ccc3c(c2)OCO3)c(N)c1S(=O)(=O)c1ccccc1	128	103	104	x
O=C(NCCCc1ccccc1)c1nn(-c2ccccc2F)nc1CO	103	90	101	-15
CC1(C)CC(=O)C2=C(C1)OC1=C(C(=O)CC(C)(C)C1)C2c1ccccc1	x	x	103	-14
CCc1ccc(NC(=O)C2CCN(c3ccc(Sc4ccc(C)cc4)nn3)CC2)cc1	85	91	104	-8
O=C(Nc1ccc(F)cc1)C1CCC(N2C(=O)C3C4C=CC(C4)C3C2=O)CC1 (stereo not given)	89	85	97	3
O=C(Nc1ccccc1)N1CCC(C(=O)N2CCc3ccccc3C2)CC1	100	86	x	-11
COC(=O)c1cccc(C(=O)Nc2ccc(F)cc2)n1	107	95	96	x
CC1CC(C)(C)NC(=S)N1CCC(=O)N1CCc2ccccc2C1 (stereo not given)	105	79	101	x
CCn1c(SCCN2CCCC2)nnc1C1CCCN(S(C)(=O)=O)C1 (stereo not given)	100	79	101	-11
Nc1nc2ccc(S(=O)(=O)c3ccc4nc(N)sc4c3)cc2s1	111	82	97	6
O=C(CCc1ccccc1)NC(c1ccc2c(c1)OCO2)c1c(O)ccc2ccccc12 (stereo not given)	109	84	x	-12
CCSc1ncnc2sc3c(c12)CCC3	107	84	x	-34
Nn1c2ccccc2c2ccccc21	104	92	104	-12

3 compounds picked at random from the list so far:
SMILES	Sa growth 42C	Sa growth 42C second temp	GIV-Gai inh	HCMV NEC inh
O=C(Nc1ccc(Br)c(Cl)c1)C1CC1	95	78	x	3
CC1(C)CC(=O)C2=C(C1)OC1=C(C(=O)CC(C)(C)C1)C2c1ccccc1	x	x	103	-14
CCn1c(SCCN2CCCC2)nnc1C1CCCN(S(C)(=O)=O)C1 (stereo not given)	100	79	101	-11

Continuation.
SMILES	Sa growth 42C	Sa growth 42C second temp	GIV-Gai inh	HCMV NEC inh
COc1ccc(CNC(=O)c2c(O)nc3c(C)cccn3c2=O)cc1	90	93	95	-3
O=C(CSc1nc2ccccc2c(=O)n1C1CCCC1)Nc1ccc2c(c1)OCCO2	116	104	x	0
CSc1ccc(S(=O)(=O)Nc2ccccc2)cc1	91	105	105	8
Cc1ccccc1CN1CCNC(=O)C1CC(=O)O (stereo not given)	96	93	106	-28
CC(C)N(CCC#N)C(=O)Nc1ccc2c(c1)CCO2	91	90	102	-22
O=C(CC(c1ccc(F)cc1)c1ccco1)N1CCCCC1 (stereo not given)	105	80	102	-17
COc1ccc(-c2nn(-c3ccccc3)cc2C(=O)Nc2ccc3[nH]c(=O)[nH]c3c2)cc1	99	94	x	16
Cc1ccc2c(CNCCc3ccco3)c(C(=O)O)n(Cc3ccccc3)c2c1	110	62	103	x
COc1ccc(-n2nc(C(=O)NCC(=O)Nc3ccc4c(c3)OCCO4)c3ccccc3c2=O)cc1Cl	90	89	102	2
CCCN1C/C(=C/c2ccsc2)C(=O)/C(=C/c2ccsc2)C1	81	53	x	-36
CC(CC(=O)NCc1cccnc1)c1ccccc1 (stereo not given)	108	82	103	-6
CCn1c2ccccc2c2nnc(NCCCN3CCN(c4cccc(Cl)c4)CC3)nc21	93	86	101	-22
CC1=Nc2cc(C(=O)N3CCOCC3)ccc2Sc2ccccc21	96	89	101	2
CNc1nc(Oc2ccc(=O)[nH]n2)nc(N2CCOCC2)n1	101	90	104	-12
Cc1cc(=O)n2[nH]c(S(C)(=O)=O)nc2n1	100	89	x	-19
Cc1ccc(-c2cn3ccccc3n2)cc1	98	58	104	x
COc1ccc(NC(=O)C(C)Oc2ccc3c(C)c(CCC(C)C)c(=O)oc3c2)cc1 (stereo not given)	84	80	100	x
c1csc(CNc2ccc(NCc3cccs3)cc2)c1	79	75	x	4
O=C(NCC(F)(F)F)c1ccc2c(c1)OCO2	80	87	x	-32
CCOC(=O)c1[nH]c(=O)[nH]c1CSCCO	113	87	101	-18
COc1ccc(CN2C(=O)c3ccccc3C2C(=O)NC2CCCCCC2)c(OC)c1 (stereo not given)	96	87	103	-19
O=C(Nc1c(C(=O)N2CCN(c3ccccc3F)CC2)oc2ccccc12)c1ccco1	83	85	104	x
CCCN(CCC)CCCNC(=O)C1CCCN(S(=O)(=O)c2cccc3nsnc23)C1 (stereo not given)	108	89	103	-63
Cc1ccc(-c2nc(NC(=O)CSc3nc(C)nc4sc5c(c34)CCCC5)ns2)cc1	110	95	103	-14
COc1ccc(-c2nc(CN3CCN(S(=O)(=O)c4ccc(OC)cc4)CC3)c(C)o2)cc1	x	x	101	-29

Full records from above. Order of values: Sa growth 42C	Sa growth 42C second temp	GIV-Gai inh	HCMV NEC inh
CSc1ccc(S(=O)(=O)Nc2ccccc2)cc1 across the screens: 91	105	105	8
CNc1nc(Oc2ccc(=O)[nH]n2)nc(N2CCOCC2)n1 across the screens: 101	90	104	-12

(next part)
SMILES	Sa growth 42C	Sa growth 42C second temp	GIV-Gai inh	HCMV NEC inh
COc1ccc(Nc2cnc(=O)nc3ccccc23)cc1	69	45	97	-65
CCCc1nn2c(C)c(-c3ccccc3)nc2s1	96	96	103	12
COC(=O)c1cc(C23CC4CC(CC(C4)C2)C3)oc1C	117	105	104	-8
COc1cc(/C=C2/SC(=S)N(CCC(=O)N3CCN(C)CC3)C2=O)cc(OC)c1OC	x	x	113	-18
Cc1nc(-c2nnc(-c3ccccc3)o2)c(C(F)(F)F)o1	90	84	103	-32
C=CCC(CC=C)(CNC(=O)C(=O)Nc1ccc(Br)cc1)c1ccc(OC)c(OC)c1	92	94	99	7
Cc1ccc(C)c(C(=O)OCC(=O)C(C)(C)C)c1	95	93	x	15
CCOc1ccc(C(=O)Nc2ccc(C(=O)OCc3cc(=O)n4nc(CC)sc4n3)cc2)cc1	96	93	100	x
O=S(=O)(Cc1ccc(Cl)cc1)c1ccc(N2CCOCC2)nn1	x	x	100	-25
CCC(C)c1ccccc1NC(=O)c1ccc(=O)n(C)n1 (stereo not given)	97	91	x	-3
CCOc1ccc(NC(=O)CN2C3CCC2CC(=O)NC3)cc1 (stereo not given)	106	87	101	5
NNCc1c(Cl)cccc1Cl	89	87	104	-16
OC(COc1ccc(OCC(O)CN2CCCC2)cc1)CN1CCCC1 (stereo not given)	114	91	110	-7
CC(C)(C)C(=O)Nc1ccccc1C(=O)NCc1cccnc1	96	87	100	-22
Cc1ccc(C2=NS(=O)(=O)N(C)C(C(=O)Nc3ccn(Cc4ccccc4C)n3)=C2)cc1	x	x	103	-27
CCn1c(-c2ccc(C)cc2)cs/c1=N\N=C/c1ccc(O)c(OC)c1	65	46	97	-3
O=C(Cc1ccccc1)N(Cc1cccnc1)c1nc2c(F)cc(F)cc2s1	110	88	101	x
COc1ccc(C(=O)N2c3ccccc3CC2C)cc1 (stereo not given)	78	94	102	10
CCOC(=O)/C(=C\c1cc(Br)c(O)c(OC)c1)C1=Nn2c(C)nnc2SC1	74	67	x	-19
COc1ccc(S(=O)(=O)N2CCCC(C(=O)NCCN3CCOCC3)C2)cc1C (stereo not given)	101	97	108	10
COc1ccccc1N1C(=O)NC(=O)/C(=C\c2ccc(OC)c3ccccc23)C1=O	x	x	106	-14
C=CCN(CC=C)C(=O)c1cc(-c2ccccc2)nc2ccccc12	79	76	100	x
CCn1c(=O)oc2ccc(C(=O)N3CCN(c4ccccn4)CC3)cc21	x	x	103	-29
Cc1nn(-c2ccccc2)c2sc(C(=O)Nc3ccc(Br)cc3)cc12	114	89	106	-23
O=C(Nc1cccc(Cl)c1)C1CCCN(c2nc3ccccc3nc2C(F)(F)F)C1 (stereo not given)	x	x	102	-7

3 structures out of the list, ordered by length of the SMILES, low to high.
SMILES	Sa growth 42C	Sa growth 42C second temp	GIV-Gai inh	HCMV NEC inh
CCOc1ccc(NC(=O)CN2C3CCC2CC(=O)NC3)cc1 (stereo not given)	106	87	101	5
COc1ccc(S(=O)(=O)N2CCCC(C(=O)NCCN3CCOCC3)C2)cc1C (stereo not given)	101	97	108	10
O=C(Nc1cccc(Cl)c1)C1CCCN(c2nc3ccccc3nc2C(F)(F)F)C1 (stereo not given)	x	x	102	-7

Following part.
SMILES	Sa growth 42C	Sa growth 42C second temp	GIV-Gai inh	HCMV NEC inh
O=C(NCCc1ccccc1)c1ccc(CS(=O)Cc2ccc(Cl)cc2)o1 (stereo not given)	116	89	108	x
Cc1nc(=O)c(-c2ccccc2)c(C)n1CCN1CCCCC1	84	92	x	-5
CCc1ccc(OCC(=O)Nc2ccc(Cl)c(-c3nc4ncccc4o3)c2)cc1	94	90	100	-8
CCN1CCN(C(c2ccc(F)cc2)c2sc3nc(-c4ccco4)nn3c2O)CC1 (stereo not given)	113	98	105	x
CCCC(=O)Nc1ccc2nc(SCC(=O)N3CCOCC3)sc2c1	102	89	101&106	-20&21
Cc1ccccc1Nc1nc(N)nc(CN2C(=O)CS/C2=C\C(=O)C(C)(C)C)n1	96	102	x	3
Cc1nc(Nc2nc3ccccc3o2)[nH]c(=O)c1C	86	95	110	-5
COc1cc2c(=O)n(Cc3ccc(C(=O)NC4CC4)cc3)c(=O)n(CC(=O)NC(C)C)c2cc1OC	x	x	106	-28
O=C(OCc1nnc(-c2ccccc2)o1)c1cccc(S(=O)(=O)N2CCCC2)c1	107	87	x	-6
O=C(/C=C/c1ccccc1)N1CCN(CCN2C(=O)C3C4C=CC(C4)C3C2=O)CC1 (stereo not given)	106	92	100	-27
CC(=O)Nc1ccc(N2CCn3c(nc4cc(Cl)ccc43)C2)cc1	x	x	105	-25
Cc1ccc(Cl)cc1N1CCN(C(=O)c2cc3c(=O)n(C)c4ccccc4c3s2)CC1	100	78	99	-24
CCCSCCCNC(=O)Cn1c(-c2cccs2)cc2ccccc21	106	84	106	x
O=C(COc1ccc(Cl)cc1)NCc1ccc2[nH]c3c(c2c1)CCCC3	90	78	98	x
COc1ccc(OC)c(S(=O)(=O)N2CCN=C2N2CCN(c3ccccc3OC)CC2)c1	x	x	105	-18
CC1CCc2c(sc(NC(=O)c3cc(-c4ccc5c(c4)OCO5)on3)c2C(N)=O)C1 (stereo not given)	106	97	98	3
CCCCn1nnnc1COC(=O)c1ccc(OCC(=O)N2CCOCC2)c(OC)c1	86	89	x	9
COC(=O)CN1C(=O)CSc2ccc(S(=O)(=O)Nc3ccc(F)c(Cl)c3)cc21	117	80	104	x
COC(=O)c1scc(C)c1-n1c(C)ccc1C	92	85	107	-18
O=C(COc1ccc2ccccc2c1)NC1CC(=O)N(c2ccc(F)cc2)C1 (stereo not given)	113	94	98	x
CC(NC(=O)Cn1cccc1C(=O)c1ccccc1)c1ccccc1 (stereo not given)	x	x	99	-25
CC(C)Cc1nnc(NC(=O)c2ccccc2)s1	107	77	99	-30
N#Cc1ccc(NC(=O)CC2(CC(=O)O)CCCCC2)cc1	97	88	x	-10
Cc1ccc(-n2c(=O)c3c(c4cc(C)ccc4n3C)n(CC(=O)NCC3CCCO3)c2=O)cc1 (stereo not given)	133	101	104	x
Cc1cc(Cl)ccc1NC(=O)CN1C(=O)COc2ccc(S(=O)(=O)Nc3ccccc3)cc21	109	104	114	x

Later entries:
SMILES	Sa growth 42C	Sa growth 42C second temp	GIV-Gai inh	HCMV NEC inh
CS(=O)(=O)CS(=O)(=O)NCc1cccs1	107	90	93	-2
O=C(CC1CCCC1)OCCN1CCCC1=O	100	99	x	26
O=C(Cn1ncc2c([nH]c3ccccc32)c1=O)Nc1ccc(Cl)cn1	104	99	98	-38
CCOC(=O)CNC(=O)c1cc2c(=O)n(CC)c3ccccc3c2s1	116	93	101	-34
N#CC1=C(N)Oc2c(sc3ccccc23)C1c1ccccc1 (stereo not given)	92	90	x	-12
Cc1nnc(N2CCC(C(=O)NCCC(C)C)CC2)c2nn(-c3ccc(Cl)cc3)c(C)c12	103	90	102	x
CCc1cccc(-n2c(=O)c3cccnc3n2CC(=O)NCc2ccc(C)cc2)c1	86	93	103	x

Part of the list above in another layout.
| molecule | Sa growth 42C | Sa growth 42C second temp | GIV-Gai inh | HCMV NEC inh |
| --- | --- | --- | --- | --- |
| CS(=O)(=O)CS(=O)(=O)NCc1cccs1 | 107 | 90 | 93 | -2 |
| O=C(CC1CCCC1)OCCN1CCCC1=O | 100 | 99 | x | 26 |
| O=C(Cn1ncc2c([nH]c3ccccc32)c1=O)Nc1ccc(Cl)cn1 | 104 | 99 | 98 | -38 |

Screening data (PubChem)
